INS promoter inh: inhibitors of insulin promoter-driven GFP, primary screen, imaging, TRM-6 cells (human fetal islet line), eGFP reporter, cell count; reporter expression induced with tamoxifen; inhibition, % at 2 µM; 0.9% of 130,000 active; AID 1273, 2008;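 active = inhibition above the mean plus 3 SD, with well images judged a real hit on visual review, cut at about 60% in these data, passing the limit was not always enough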
PKD1 inh: inhibitors of human PKD1 kinase, biochemical, fluorescence polarization; Serine/threonine-protein kinase D1 (Homo sapiens), Q15139; PKD1 kinase fluorescence polarization assay; inhibition, %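 (about 10 µM by stock and volumes)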; 0.056% of 200,000 active;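 active = inhibition of 50% or more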;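 note: controls were vehicle for no effect and a reference inhibitor for full effect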
RGS16-Gao: modulators of RGS16 binding to Galphao, primary screen, biochemical, human proteins, multiplexed bead flow cytometry; 0.38% of 220,000 active; Regulator of G-protein signaling 16 (Homo sapiens) + Guanine nucleotide-binding protein …; AID 1441, 2008; binding response (% of control), % at 10 µM; bead-based flow cytometry RGS16-Galphao binding, fluorescence; actives lie on both sides;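 active = below 25% or above 175%, edge rows of some plates excepted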;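 note: Galphao activated by GDP with aluminum fluoride before binding; 100% = wells without compound and 0% = beads without RGS; some results beyond the cut were filed as inactive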
Target sequence (O15492 whole entry, looked up): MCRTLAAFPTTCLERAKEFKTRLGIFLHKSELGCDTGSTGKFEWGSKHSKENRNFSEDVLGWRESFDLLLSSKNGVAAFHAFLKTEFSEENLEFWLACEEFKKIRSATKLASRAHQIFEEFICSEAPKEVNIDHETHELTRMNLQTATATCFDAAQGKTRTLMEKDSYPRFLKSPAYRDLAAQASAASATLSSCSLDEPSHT
Target sequence (P09471 whole entry, looked up): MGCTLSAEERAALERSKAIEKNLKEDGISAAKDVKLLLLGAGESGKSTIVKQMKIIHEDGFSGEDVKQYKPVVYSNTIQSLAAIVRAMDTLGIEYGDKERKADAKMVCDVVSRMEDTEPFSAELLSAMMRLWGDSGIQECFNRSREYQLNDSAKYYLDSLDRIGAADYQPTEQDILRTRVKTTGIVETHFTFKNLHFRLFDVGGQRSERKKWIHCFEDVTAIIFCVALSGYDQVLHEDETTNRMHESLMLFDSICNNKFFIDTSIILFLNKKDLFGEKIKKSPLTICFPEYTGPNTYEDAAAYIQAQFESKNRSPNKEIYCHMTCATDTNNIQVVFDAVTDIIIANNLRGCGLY
GALR2 ag: GALR2 receptor agonists, primary screen, cell-based; Galanin receptor type 2 (Homo sapiens), O43603; GALR2-expressing cells, agonist activation read-out; activation, %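 (tested at 5 µM)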; 0.48% of 140,000 active;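 active = above mean plus 3 SD of all compounds, about 5% in these data, not always enough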;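 note: 0% = vehicle buffer wells and 100% = reference agonist at full effect; tested in CHO reporter cells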
HSV replic up: enhancers of HSV replication in host cells, fold increase, host cell viability. HSV replication augmentation in cells. maximum fold increase. 0.005% of 220,000 active;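 active = peak rise of 1.5-fold or more in the series; tested in PC3 cells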;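 note: first round at 10 µM; read as green reporter fluorescence; hits show the peak of a series up to 25 µM; 1 = signal of infected wells without compound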
INS promoter inh cell count: further read-out of INS promoter inh, marked with its call; normalized cell count, %; measured here: cell count, toxicity; reference of the scale not given here;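 cells exposed to compound for 48 h; stained nuclei by imaging scaled within each plate; lower means fewer cells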
HSV replic up primary fold: also measured in HSV replic up; calls as there; fold increase; compound at 10 µM; measured here: primary screen fold increase 10 uM; tested in PC3 cells;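 GFP signal in the first replicate; 1 = infected wells without compound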
* hit, by the source's call; i = inactive; / = not tested or not shown.

#	Structure	INS promoter inh	INS promoter inh cell count	PKD1 inh	RGS16-Gao	GALR2 ag	HSV replic up	HSV replic up primary fold
1	Cc1ccc(C(=O)N/C(=C\c2ccc(Br)cc2)c2nc(=S)[nH][nH]2)cc1	4.5	100.0	-8.1	119.7	2.2	i	1.15
2	O=C(NCC1CCCO1)C1CCN(S(=O)(=O)N2CCCC2)CC1 (stereo unspecified)	/	/	-9.1	97.3	0.3	i	1.09
3	O=C1/C(=C\c2ccc(-c3ccccc3Cl)o2)SC(=S)N1CC1CCCO1 (stereo unspecified)	/	/	-7.8	126.7	-0.1	i	1.22
4	COc1ccc(OC)c(C(c2nnnn2C2CCCC2)N2CCN(c3ccccc3F)CC2)c1 (stereo unspecified)	-7.1	67.7	-2.0	101.3	-0.2	i	0.93
5	CCn1c(NCc2ccco2)nc2c1c(=O)n(C)c(=O)n2C	13.2	75.9	-2.0	106.6	-2.2	i	0.87
6	CCN(CC(=O)NCc1cccs1)S(=O)(=O)c1ccc([N+](=O)[O-])cc1	/	/	0.6	100.3	/	i	1.02
7	COc1ccc(CCNc2oc(-c3cccc4ccccc34)nc2P(=O)(OC)OC)cc1OC	10.0	101.1	1.7	102.0	1.8	i	0.97
8	COc1ccnc(Nc2ccc(C)c(C)c2)c1C#N	21.9	106.6	-0.5	102.9	-2.0	i	0.85
9	COc1cccc(C2=NN(C(=O)CCCC(=O)O)C(c3cccs3)C2)c1 (stereo unspecified)	/	/	/	104.4	/	i	1.03
10	O=C(Cn1cnc2c(oc3ccccc32)c1=O)NCc1ccccc1	/	/	-2.5	102.8	-0.1	i	0.83
11	COc1ccccc1C(=O)NC(CCSC)C(=O)NC1CCCCCC1 (stereo unspecified)	/	/	1.7	98.3	/	i	0.94
12	O=C(O)CCc1nn2c3ccccc3n(CC(=O)c3ccccc3)c2nc1=O	-25.0	32.8	-10.1	107.9	-1.2	i	0.79

Sorted by SMILES length (descending): 3 of the compounds above.
#	Structure	INS promoter inh	INS promoter inh cell count	PKD1 inh	RGS16-Gao	GALR2 ag	HSV replic up	HSV replic up primary fold
2	O=C(NCC1CCCO1)C1CCN(S(=O)(=O)N2CCCC2)CC1 (stereo unspecified)	/	/	-9.1	97.3	0.3	i	1.09
10	O=C(Cn1cnc2c(oc3ccccc32)c1=O)NCc1ccccc1	/	/	-2.5	102.8	-0.1	i	0.83
5	CCn1c(NCc2ccco2)nc2c1c(=O)n(C)c(=O)n2C	13.2	75.9	-2.0	106.6	-2.2	i	0.87

Next results
#	Structure	INS promoter inh	INS promoter inh cell count	PKD1 inh	RGS16-Gao	GALR2 ag	HSV replic up	HSV replic up primary fold
13	CN(C)S(=O)(=O)Oc1ccsc1C(=O)Nc1cccc(Cl)c1	13.3	56.3	-8.4	102.6	0.3	i	1.05
14	O=C(CN1CCOCC1)NN=C1CCCCCCCCCCC1	30.8	154.9	-3.0	108.1	-0.4	i	0.96
15	CCOc1ccc(CC2c3cc(OCC)c(OCC)cc3CCN2C(=O)c2cc(OC)c(OC)c(OC)c2)cc1OCC (stereo unspecified)	36.4	100.0	4.3	99.3	-2.6	i	0.95
16	O=C(Nc1ccccc1Cl)N1CCCN(c2nc(-c3ccccc3)ns2)CC1	/	/	/	92.7	/	i	1.19
17	CCCCc1ccc(NC(=S)NCc2cccc(OC)c2)cc1	/	/	-4.5	99.1	/	i	0.79
18	COC(=O)c1cc(NS(=O)(=O)c2ccc(NC(C)=O)cc2)cc(C(=O)OC)c1	18.9	106.4	1.1	95.5	-0.8	i	0.94
19	Clc1ccc(CN2CCC(Cc3ccccc3)CC2)cc1	/	/	-2.9	104.5	1.0	i	0.92
20	C=CCNC(=O)CC(=O)N/N=C/c1ccccc1F	/	/	-7.7	98.6	-2.3	i	0.66
21	Cc1ccc(C(=O)N2CCN(C(=O)CN3CCCC3)C2)cc1	-12.5	144.9	-4.6	99.8	-2.7	i	0.93
22	CN1CCN(Cc2oc(CO)cc(=O)c2O)CC1	/	/	-4.6	97.5	-2.1	i	0.92
23	Cc1ccc(C)c(N2CCN(CCCNC(=O)Cn3cc4c(n3)CCC(C)C4)CC2)c1 (stereo unspecified)	/	/	-2.3	100.1	-0.5	/	/
24	O=c1[nH]nc2c3ccccc3cnn12	/	/	-0.5	100.3	-2.2	i	0.95

Following part:
#	Structure	INS promoter inh	INS promoter inh cell count	PKD1 inh	RGS16-Gao	GALR2 ag	HSV replic up	HSV replic up primary fold
25	CCCCN(C)CCCNC(=O)CCn1nc(-c2ccccc2)ccc1=O	-26.7	122.9	-0.7	98.1	-0.4	/	/
26	CCCCC(=O)NC(NC(=O)CCCC)c1ccc(OCCC)c(OC)c1	20.0	147.9	6.7	108.1	-0.9	i	0.93
27	O=C(COC(=O)c1cccc(S(=O)(=O)N2CCc3ccccc32)c1)Nc1ncc(Cl)cc1Cl	7.1	132.0	-10.5	110.3	0.1	i	0.96
28	COc1ccc(/C(O)=C2/C(=O)C(=O)N(CCN3CCOCC3)C2c2ccccn2)cc1OC (stereo unspecified)	63.6	128.8	1.9	99.2	-1.8	i	1.17
29	COc1ccc([C@@H]2[C@H]3C(=O)N(c4cccc(C(F)(F)F)c4)C(=O)[C@H]3ON2C)cc1	-15.9	85.8	-2.0	50.5	-1.1	i	0.93
30	Cc1cc(OC(=O)C(C)(C)C)c([N+](=O)[O-])c(=O)[nH]1	0.0	110.5	-5.2	98.5	/	/	/
31	CCN(CC(=O)Nc1ccc2c(c1)OCO2)Cc1nc2ccccc2c(=O)[nH]1	/	/	-1.7	100.5	-0.4	i	0.98
32	CCN(CC)CCNC(=O)C12CC3CC(CC(C3)C1)C2	11.1	49.2	-1.2	22.9	-2.1	i	0.92
33	COc1ccc(Sc2cc(C(F)(F)F)nc(-c3ccccn3)n2)cc1	33.3	136.3	-4.8	100.9	-0.9	i	0.74
34	CS(=O)(=O)Nc1ccccc1NS(C)(=O)=O	/	/	/	91.2	/	i	0.93
35	CCCCOc1ccc(C(=O)NC(=S)Nc2ccc(CN3CCOCC3)cc2)cc1	-8.3	91.0	-9.1	98.5	-1.3	i	0.91
36	COC(=O)c1cccc(NS(C)(=O)=O)c1	/	/	/	88.5	/	i	0.85

Continued.
#	Structure	INS promoter inh	INS promoter inh cell count	PKD1 inh	RGS16-Gao	GALR2 ag	HSV replic up	HSV replic up primary fold
37	Cc1cc(C)n2nc(C(=O)N/N=C/c3cn(C)nc3C)nc2n1	/	/	/	101.1	/	i	0.98
38	COc1ccccc1N1CCN(Cc2cccs2)CC1	/	/	2.5	90.6	0.5	i	0.9
39	CCC(C)Sc1cc(C(F)(F)F)c(C(=O)Nc2ccc(Cl)cc2)cn1 (stereo unspecified)	/	/	/	97.9	/	i	1.13
40	N/C(Cc1ccc(Cl)cc1)=N\OC(=O)Cc1ccc([N+](=O)[O-])cc1	/	/	-7.0	104.1	-0.2	i	1.08
41	CCCN1CCC(=NNc2ccc(S(=O)(=O)N(CC)CC)cc2[N+](=O)[O-])CC1	/	/	2.2	106.2	/	i	0.76

Quoted at random: three compounds from above.
#	Structure	INS promoter inh	INS promoter inh cell count	PKD1 inh	RGS16-Gao	GALR2 ag	HSV replic up	HSV replic up primary fold
20	C=CCNC(=O)CC(=O)N/N=C/c1ccccc1F	/	/	-7.7	98.6	-2.3	i	0.66
40	N/C(Cc1ccc(Cl)cc1)=N\OC(=O)Cc1ccc([N+](=O)[O-])cc1	/	/	-7.0	104.1	-0.2	i	1.08
19	Clc1ccc(CN2CCC(Cc3ccccc3)CC2)cc1	/	/	-2.9	104.5	1.0	i	0.92

Bioassay records deposited in PubChem BioAssay by several laboratories.
